High-throughput results (PubChem BioAssay)
Sa RN4220 lethal: S. aureus RN4220 growth inhibition; OD600, 16 h; inhibition, % (test concentration not listed); hit rate 0.33% among 330,000;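 active means z-score of -3 or lower and OD600 up to 0.18 on both plates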;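 further: plate controls were untreated cells for no effect and reference antibiotic for full effect; stock transfer was 100 nL into about 80 µL; one replicate is shown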
Mtb hypoxia inh: Mtb hypoxia fluorescent reporter inhibition. hit rate 0.1% among 300,000. fluorescence inhibition, % (concentration not given with the values). M. tuberculosis hypoxia-regulated fluorescent reporter, fluorescence;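 active means 35 to 45% if threefold the growth effect, above 45% if 1.5-fold the growth effect; inactive means the rest, general growth blockers included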;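 further: wells of about 50 µL received 100 nL stock; 0% = vehicle wells and 100% = reference inhibitor wells; whole bacteria with a GFP reporter of the hypoxia response; strong numbers were not always called active; many hits fall short of the cut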
PrP 5UTR inh: inhibition of PrP 5' UTR reporter expression | cell-based PrP 5' UTR mRNA reporter, plate reader | inhibition, % (no concentration beside the values) | hit rate 0.35% among 340,000 | AID 488862;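 active means every replicate at 50% or more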;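 further: 0 = median of the neutral control wells; tested in H4 reporter cells; numbers are from one replicate; inactives centre near -14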
Bead autofluor: flagged as autofluorescent in microsphere protease counterscreen. hit rate 3.1% among 360,000. fluorescence intensity (test concentration not listed). compound autofluorescence counterscreen, microsphere flow cytometry; stronger effect = higher value;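 active means at least 3 SD above the mean of all compounds, about 16000 in these data; inconclusive means too few beads counted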;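 further: 100 nL of 1 mM stock went into each well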
BJeLR viability: BJeLR cell viability loss; BJeLR (HRASV12) viability, CellTiter-Glo ATP luminescence, 48 h; reference of the scale not given here; inhibition, % (no concentration beside the values); hit rate 0.17% among 300,000;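 active means replicate mean above 50%; inconclusive means above 50% but judged a plate artefact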;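 further: 50 nL library stock added to about 25 µL; numbers are from one replicate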
Sa ugtP lethal: compounds lethal to S. aureus RN4220 ugtP deletion mutant. OD600 growth, 16 h; some inactives read as strong as hits. growth inhibition, % (test concentration not listed). hit rate 0.54% among 330,000;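 active means z-score under -3 and OD600 up to 0.15 on both plates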;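 further: plate controls were untreated wells for no effect and antibiotic for full effect; wells of about 80 µL received 100 nL stock; the first replicate is given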
Mtb hypoxia inh growth: also measured in Mtb hypoxia inh; calls as there; growth inhibition, %; measured here: M. tuberculosis growth (absorbance);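 0% = vehicle and 100% = reference antibiotic; read after six days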
Starred values were filed as active, the others as inactive; ? = inconclusive; / = no result given. Compounds as they come; any-hit rate near 4%.

Screens in order: Sa RN4220 lethal, Mtb hypoxia inh, Mtb hypoxia inh growth, PrP 5UTR inh, Bead autofluor, BJeLR viability, Sa ugtP lethal
O=C1[C@@H]2Cc3c([nH]c4ccccc34)C(c3ccccc3)N2C(=O)CN1CCO (stereo not given in full)
  -1.8, -2, 4, -15, 3607, -1, -9
COc1ccccc1NC(=O)c1nc(S(=O)(=O)Cc2ccccc2)ncc1Cl
  /, /, /, -10, 5528, -14, /
Cn1c2ccc(F)cc2c2nnc(SCCN3CCCCC3)nc21
  0.6, 9, 0, -11, 4028, 25, 2
COC(=O)C1CCN(C(=O)c2ccccc2NC(C)=O)CC1
  4.0, 15, 13, -15, 8333, 0, 1
C=C(C)C(=O)Nc1cccc(C2=NOC3(C2)CC(C(N)=O)N(C(=O)c2cc([N+](=O)[O-])cc([N+](=O)[O-])c2C)C3)c1 (stereo not given)
  0.2, 6, 10, /, /, /, -11
Cc1ccc(-c2nn(-c3ccccc3)cc2CC(=S)N2CCOCC2)cc1
  6.5, 2, -5, -9, 3486, -1, 27
O=C(NC(=S)Nc1ccccc1N1CCCC1)c1ccc([N+](=O)[O-])cc1
  1.9, -6, -1, -4, 2243, 7, 42
Cc1ccc(C(c2nnnn2CC2CCCO2)N2CCN(c3cccc(C)c3C)CC2)cc1 (stereo not given)
  2.0, /, /, -18, 3566, 4, -11
CN(C)CCC(O)(c1ccccc1)c1ccccc1
  -0.1, 0, 8, -31, 10620, 3, -1
Cc1cc(C(=O)Nc2ccc(Br)cc2F)n(-c2ccccc2)n1
  1.5, 8, 6, -6, 3574, -3, 4
Cc1cccc(-n2c(N)cc(=O)[nH]c2=S)c1
  0.7, 12, 13, -20, 8466, 7, 0
OCCC1CN(Cc2ccccc2O)CCN1CCc1ccccc1 (stereo not given)
  /, /, /, -7, 4178, -3, /
O=S(=O)(Nc1cccc(C(F)(F)F)c1)c1cccnc1
  0.2, /, /, -24, 2016, 3, -2
COc1ccccc1NC(=O)N1CCN(c2ccc(F)cc2)CC1
  -1.2, /, /, -17, 4002, 1, 6
Cc1ccc(C(=O)N/C(=C/c2ccco2)C(=O)O)cc1
  1.0, 8, -5, -14, 2222, -10, 4
NS(=O)(=O)c1cccc(NS(=O)(=O)c2ccc(/C=C/C(=O)OCC(=O)c3ccccc3)cc2)c1
  14, 14, 9, -19, 4529, 12, 12
Cc1cc(OC(=O)c2ccco2)c(Sc2ccccc2[N+](=O)[O-])c(=O)o1
  1.1, 11, 10, 12, 3303, /, 5
Cc1cc(OC(=O)c2ccc(C)c(C)c2)c([N+](=O)[O-])c(=O)[nH]1
  2.9, -4, -1, -19, 5713, 3, -3
COc1ccc(NC(=O)NC23CC4(C)CC(C)(CC(C)(C4)C2)C3)cc1
  14, 9, 7, -8, 2503, 0, -18
Clc1ccc(-c2ccc(CN3CCCCC3)o2)cc1
  2.3, 14, 6, -30, 3852, 7, 14
O=S(=O)(NCc1ccc(Cl)cc1)NCc1ccc(Cl)cc1
  1.5, -7, 10, -16, 3164, 1, -8
O=C(Cn1cnc2c(cnn2-c2ccccc2Cl)c1=O)N1CCc2ccccc21
  3.1, 5, 9, 16, 21755*, -8, 1
O=C(CCc1ccccc1)NC(NC(=S)Nc1ccc(Cl)cc1)C(Cl)(Cl)Cl (stereo not given)
  -13, /, /, 0, 4854, -8, -26
C/C(=N\Nc1nc(-c2ccccn2)nc2ccccc12)c1ccc(F)cc1
  /, /, /, -11, 3192, 11, /
O=C(OCc1ccccc1F)c1ccc2c(c1)OCCO2
  26, 9, 5, -116, 3364, -1, 37
NNS(=O)(=O)c1ccc(Sc2ccccn2)c([N+](=O)[O-])c1
  5.7, 2, 2, -34, 5815, 7, 5
CCC(CC)c1nnc(NC(=O)[C@@H](NC(=O)c2cccc(C)c2)C(C)C)s1
  8.2, -10, 5, -25, 2667, 3, 0
Cc1cc(C)c(C(=O)c2ccc(C(=O)N3CCCCC3)cc2)c(C)c1
  4.8, 3, -2, -9, 6054, -1, 3
COc1cccc2cc(-c3cn4ccc(C)cc4n3)c(=O)oc12
  2.5, 9, 8, -112, 11024, -5, -2
O=C(CNC(=O)c1cccs1)c1ccc([N+](=O)[O-])cc1
  5.3, 11, 6, -63, 2850, -2, 1
COc1ccc(-c2ccc(=O)n(CC(=O)Nc3ccc(C(=O)NC4CC4)cc3)n2)cc1OC
  4.4, -5, 6, -8, 2525, -2, 4
O=C(c1ccccc1)N1CCN(c2ccccc2F)CC1
  5.5, 22, 24, -30, 8117, 1, 3
O=C(Cc1ccc(S(=O)(=O)N2CCOCC2)s1)Nc1ccc(S(=O)(=O)N2CCCCC2)cc1
  -3.4, 1, 11, -13, 6687, -2, -6
C/C(CC(=O)Nc1ccc(N(C)C)cc1)=N\NC(=O)c1ccccc1F
  /, /, /, -22, 3529, -5, /
O=S(=O)(Cc1cc(Cl)nc(-c2ccncc2)n1)c1ccccc1
  5.6, 14, 5, 4, 2612, 7, 6
CCOC(=O)C1(CCOC)CCN(C(=O)c2ccccc2-c2cccc(C)c2)CC1
  11, -6, -4, -33, 2611, 3, -8
O=C(COc1ccccc1)NCc1ccc(-n2cccc2)cc1
  3.7, 17, 16, -23, 2002, 10, 6
Cc1cc(Br)ccc1NS(=O)(=O)c1c(C)[nH]c(=O)[nH]c1=O
  5.4, 18, 8, -27, 3620, -3, 26
Cn1c(Cn2cnc3ccccc32)nnc1SCC(=O)CC(=O)Nc1ccccc1
  1.9, 9, 5, -13, 8049, -4, 10
CC(=NNc1ccc(C(=O)O)cc1)c1ccc(-n2ccnc2)cc1
  6.2, 4, 2, /, /, /, 3
COc1ccc(NC(C)=O)cc1NC(=O)CSc1nc2ncccc2[nH]1
  -2.6, /, /, -17, 2154, -9, 0
Nc1c(C(=O)Nc2ccccc2)sc2nc3c(c(-c4ccco4)c12)CCC3
  14, -2, 4, -8, 3453, 4, -3
Cc1cccc(N2CCN(C(=O)C3CCN(S(=O)(=O)c4cccnc4)CC3)CC2)c1C
  3.9, -10, -6, -4, 4092, -13, -15
Cc1csc(NC(=O)C2CCCN2C(=O)OCC(C)C)n1 (stereo not given)
  -23, 2, 7, 38, ?, 1, -11
Cc1ccc(NC(=O)OC(C)N2CCCCC2)cc1NC(=O)OC(C)N1CCCCC1 (stereo not given)
  1.4, 8, 8, 2, 2974, /, 2
CN1C(=O)C(C)(C)c2cc(S(=O)(=O)NCc3ccc(Cl)cc3)ccc21
  2.7, /, /, -33, 5633, -7, 4
CCO[C@@H]1OC(C(=O)NC2CC2)=C[C@H](C)[C@H]1CCCO
  /, /, /, -26, 3685, 10, /
COc1ccc(C=NNc2nc3ccccc3s2)cc1O
  0.4, 2, -4, /, /, /, -7
C[C@]1(C(=O)O)C=CC(Cc2ccccc2)N1C(=O)c1ccccc1 (stereo not given in full)
  6.9, 10, 8, /, /, /, -9
Cc1cc(C)nc(-n2ncc3c2CC(C)CC3=O)n1 (stereo not given)
  2.8, 5, 11, /, 6070, -9, 5

An excerpt of these results, as tab-separated lines.
Compound	Sa RN4220 lethal	Mtb hypoxia inh	Mtb hypoxia inh growth	PrP 5UTR inh	Bead autofluor	BJeLR viability	Sa ugtP lethal
Nc1c(C(=O)Nc2ccccc2)sc2nc3c(c(-c4ccco4)c12)CCC3	14	-2	4	-8	3453	4	-3
Cc1cccc(N2CCN(C(=O)C3CCN(S(=O)(=O)c4cccnc4)CC3)CC2)c1C	3.9	-10	-6	-4	4092	-13	-15
Cc1csc(NC(=O)C2CCCN2C(=O)OCC(C)C)n1 (stereo not given)	-23	2	7	38	?	1	-11

Continued:
Screens in order: Sa RN4220 lethal, Mtb hypoxia inh, Mtb hypoxia inh growth, PrP 5UTR inh, Bead autofluor, BJeLR viability, Sa ugtP lethal
NC(=O)C1CCN(CC(=O)Nc2cc(Cl)ccc2Oc2ccccc2)CC1
  7.5, 4, -7, -43, 4610, -9, 10
Cc1cc(=O)[nH]c(=S)[nH]1
  6.8, 2, 16, -12, 5452, 2, 6
Cc1cc2c(cc1S(=O)(=O)Nc1cccc(C)c1C)n(C)c(=O)c(=O)n2C
  3.5, /, /, -5, 5949, -2, -7
CC(C)C(NC(=O)c1ccc(Br)cc1)C(=O)NC1=NCCS1 (stereo not given)
  1.7, 3, 2, -32, 1974, -13, 7
CC1CCN(c2nc3c(c(=O)[nH]c(=O)n3C)n2Cc2ccccc2Cl)CC1
  1.5, 7, -2, -17, 6053, 2, 7
COc1cccc(OCc2nn[nH]n2)c1
  -0.4, 14, 2, -14, 4874, 12, 6
CC(CC(=O)Nc1ccc(N(C)C)cc1)=NNC(=O)c1ccc(Cl)cc1
  3.4, -5, 0, /, /, /, 2
Cc1ccc(S(=O)(=O)NCC(=O)OCc2csc(-c3ccccc3)n2)cc1
  5.4, 1, 6, -24, 2378, -2, 0
Clc1ccc(Nc2nc(NCCN3CCOCC3)nc(N3CCOCC3)n2)cc1
  5.5, /, /, 6, 2114, 4, -15
Cc1ccsc1C(C(=O)NCc1ccccc1)N(C(=O)c1csnn1)c1ccccc1 (stereo not given)
  0.4, 0, 0, -23, 3655, -8, 0
CCOc1cc(N2CCOCC2)c(OCC)cc1NC(=O)CN1CCN(Cc2ccc3c(c2)OCO3)CC1
  -3.4, 8, 1, 2, 4610, -6, 7
CN1CCN(NC(=O)/C=C/c2cccc([N+](=O)[O-])c2)CC1
  4.9, 5, -6, -9, 3275, -3, 7
CCOC(=O)c1cnc2oc3ccccc3n2c1=O
  -1.2, 6, 8, -30, 4518, 2, 4
CC(=O)c1ccc(C(=O)N2CCCC(Nc3ccccc3)C2)s1 (stereo not given)
  -1.0, 3, 1, -25, 5127, -6, 3
CC(=O)Cc1nsc(NC(=O)c2cccs2)n1
  -0.8, 13, 10, -25, 4256, 1, -2
O=c1c2ccccc2nc2sc(Nc3ccc(F)cc3)nn12
  5.1, 15, 10, -50, 2784, /, -3
O=C(O)c1c(F)c(F)cc2ccccc12
  -1.0, 1, 7, -10, 3664, 4, 2
N#Cc1ccc(OCC(=O)Nc2cc(S(=O)(=O)N3CCOCC3)ccc2N2CCOCC2)cc1
  2.7, -3, -3, -16, 4845, -1, 3
COc1ccc(N(C(=O)c2ccncc2)S(=O)(=O)c2ccccc2)cc1
  4.6, 3, 10, -13, 5360, 1, 5
CCCCCCc1cc2cc(-c3nnc(-c4ccccc4OC)o3)c(=O)oc2cc1O
  /, /, /, -4, 22218*, 2, /
CCn1c(COc2ccc3c(c2)CCCC3)nnc1SCC(=O)Nc1nccs1
  6.7, 2, 6, -40, 20125*, 5, -3
Cc1cc2oc(C(=O)NCc3ccncc3)c(C)c2cc1C
  3.1, 6, 3, -24, 5326, 7, 15
Cc1ccc(SCC(=O)N(C)CC(=O)Nc2cccc(F)c2)c(C)c1
  3.9, 0, -1, 4, 4089, 1, 4
COC(=O)c1ccc(C)c(NC(=O)c2ccc(CN3CCc4ccccc4C3)cc2)c1
  -7.7, 4, 4, -11, 4189, -8, 0
Oc1[nH]c2ccccc2c1OCc1ccncc1
  3.2, /, /, -11, 2393, 6, 4
COc1ccc(Cl)cc1N(CC(=O)NC1CC2CCC1C2)S(=O)(=O)c1ccccc1 (stereo not given)
  5.5, -10, -9, 5, 4698, 9, 8
COc1ccc(C(=O)N2CCN(c3ccccc3)CC2)cc1S(=O)(=O)NC1CC1
  4.1, -1, 1, -28, 5390, /, -1
COc1cccc2cc(C(C)N(CCCN3CCOCC3)C(=S)Nc3ccc(C)cc3)oc12 (stereo not given)
  1.8, 4, 4, -19, 3970, -2, 10
COc1ccc(C(=O)OCC(=O)c2cc(C)n(CC3CCCO3)c2C)cc1[N+](=O)[O-] (stereo not given)
  -2.2, 12, 7, -12, 8646, /, -2
O=C(NC1CCCC1)C(c1ccncc1)N(Cc1ccccc1)C(=O)Cc1cccs1 (stereo not given)
  6.7, 7, 4, -21, 6483, 3, 10
Cc1ccc(S(=O)(=O)Nc2c(C)ccc3nsnc23)cc1
  13, 8, 3, -27, 4509, -2, 2
CCn1c(CCCNC(=O)c2cccs2)nc2ccccc21
  -5.9, 10, 19, -11, 5790, -2, -3
COC(=O)C1=C(C)N(CCCC(=O)O)C(=O)NC1c1cccc(OC)c1 (stereo not given)
  1.2, 6, 3, -9, 3979, -3, -10
Cc1cccc(Nc2nnc(SCC(=O)Nc3ncc(C(F)(F)F)cc3Cl)s2)c1C
  /, /, /, -17, 7828, -13, /
O=C1CCn2nc(-c3ccc(Cl)cc3)cc2N1
  20, -5, 10, -53, 5458, 1, -1
COc1ccc(/C=N/n2c(COc3ccccc3)n[nH]c2=S)cc1OC
  /, /, /, -12, 3315, -7, /
